# HCMV NEC inh: inhibitors of HCMV UL50-UL53 nuclear egress complex interaction. HTRF UL50-UL53 interaction, normalized percent inhibition. inhibition, % (test concentration not listed). 190,000 compounds, 0.15% hits. AID 1918969;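 active means both replicates at 50% or more, plus weaker picks with an unusually low signal ratio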;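 further: stock transfer was 100 nL into about 20 µL; 0% = negative control wells and 100% = wells with untagged competitor protein; inactives centre near -12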
# GIV Gai3 FP: blocks GIV peptide binding to rat Galpha-i3; AID 1224905; 210,000 compounds, 0.42% hits; P08753; percent of control (FP), % (no concentration beside the values); Galpha-i3/FITC-GIV peptide fluorescence polarization, 90 min; hits give low values; scaled: aluminum fluoride 0%, vehicle 100%;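 active means replicate mean at 85% of control or lower, very high polarization wells dropped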;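 further: wells of about 15 µL received 100 nL stock; the first replicate is given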
# Target sequence (P08753 whole entry, looked up): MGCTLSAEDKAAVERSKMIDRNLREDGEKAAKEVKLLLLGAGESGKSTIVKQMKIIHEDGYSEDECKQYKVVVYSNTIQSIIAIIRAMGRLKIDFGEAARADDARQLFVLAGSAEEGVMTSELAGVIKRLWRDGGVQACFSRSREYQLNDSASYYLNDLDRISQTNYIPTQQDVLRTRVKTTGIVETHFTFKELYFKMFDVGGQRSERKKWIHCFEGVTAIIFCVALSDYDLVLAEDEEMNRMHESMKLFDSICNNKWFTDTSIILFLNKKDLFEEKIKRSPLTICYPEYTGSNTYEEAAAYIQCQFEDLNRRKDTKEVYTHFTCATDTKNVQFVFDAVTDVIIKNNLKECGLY
# Sa growth 42C: blocks Staphylococcus aureus growth. S. aureus RN4220 growth, OD600, 20 h, 42 °C; hits give low values. relative growth, % (concentration not given with the values). 170,000 compounds, 0.53% hits;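 active means growth at 42 °C up to 50% and 20 or more points under that at 30 °C, or under 10% at both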;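 further: 300 nL library stock went into each well; scaled to the means of positive and negative controls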
# Sa growth 42C second temp: second read-out of Sa growth 42C, no call of its own (marks repeat the call); relative growth, %; measured here: growth at 30 °C;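 optical density after 20 h as mean of two plates; 100% = untreated growth and lower means inhibition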
# An asterisk follows results filed as active; . = not tested or not shown.
SMILES,HCMV NEC inh,GIV Gai3 FP,Sa growth 42C,Sa growth 42C second temp
COc1ccc(CN(CCCN)CCC2(c3ccccc3)CC(C)N(C)CC2C)cc1OC (stereo not given),12.4,.,111.5,98.9
c1ccc(CN2CC(c3nn[nH]n3)CN(Cc3ccccc3)C2)cc1,-21.5,104.7,87.6,95.0
COc1ccc(OC)c(NS(C)(=O)=O)c1,-19.7,97.6,85.9,85.2
COc1cccc(CNC(=O)CCCN2C(=O)CSc3c2c(C)nn3-c2ccccc2)c1,.,102.1,118.0,86.0
CCC1CCCCN1S(=O)(=O)c1ccc(S(=O)(=O)n2cnc3cc(C)c(C)cc32)cc1 (stereo not given),10.2,99.4,98.0,103.5
O=C(C1CCN(S(=O)(=O)c2cnc[nH]2)CC1)N1CCN(Cc2ccc3c(c2)OCO3)CC1,-10.6,99.1,87.6,96.3
COc1ccc(-c2nc3ccccc3c(=O)n2NCc2cccc(Br)c2)cc1OC,-20.1,105.0,.,.
CCCCN(CN1C(=O)C2CC=C(Cl)CC2C1=O)CN1C(=O)C2CC=C(Cl)CC2C1=O (stereo not given),-21.8,110.4,.,.
COc1ccc(CNC(=O)C(=O)NCC(c2ccco2)S(=O)(=O)c2ccc(Cl)cc2)cc1 (stereo not given),.,100.2,112.5,98.5
CNC(=O)c1ccccc1Sc1ccccc1,-6.7,100.9,118.6,88.9
c1ccc2c(c1)nnn2CNCn1nnc2ccccc21,-33.5,99.3,110.5,85.4
Fc1ccc(CNc2nc3c(-c4ccccc4)nnn3c3ccccc23)cc1,-23.8,108.9,.,.
Cc1ccc(S(=O)(=O)C(CNS(=O)(=O)c2ccc(F)c(C)c2)c2cccs2)cc1 (stereo not given),.,99.1,168.1,83.7
CCN(CC)CCn1c(C)c(C)c2c1ncn1nc(-c3ccc(F)cc3)nc21,-13.3,104.9,.,.
Cn1c(SCC(=O)NCc2ccco2)nnc1-c1c[nH]c2ccccc12,.,102.4,111.0,93.9
O=c1[nH]c(=O)n(-c2ccccc2)c(O)c1C=NCCO,-9.1,112.7,100.0,123.0
N/C(=N\OC(=O)CC1CCCCC1)c1ccccc1,-13.1,101.4,93.5,77.2
Cn1nc(C(=O)Nc2cccc3ccccc23)ccc1=O,-61.2,.,97.5,93.6
Cc1ccc(-n2nc(C)c(C(=O)N(Cc3ccccc3)C(C)C)c2-n2cccc2)cc1,-17.1,102.8,64.2,39.4
COc1cccc(C(c2sc3nc(-c4ccco4)nn3c2O)N2CCC(O)CC2)c1 (stereo not given),.,107.9,121.6,101.0
CCCNC(=O)NNc1cccc(C)c1,-18.5,.,95.3,99.4
CCOc1ccc(-n2ccnc2SCC(=O)Nc2cccc3ccccc23)cc1,.,101.4,109.9,90.2
CC(C)Cc1ccc(/C=C/C(=O)N2CCCC2)cc1,-61.1,.,74.9,92.0
CCOc1cc(C=C2C(=O)NC(=O)NC2=O)ccc1OCc1ccc([N+](=O)[O-])cc1,-25.8,99.4,.,.

# Eleven entries from above, ordered by SMILES length, largest number first.
SMILES,HCMV NEC inh,GIV Gai3 FP,Sa growth 42C,Sa growth 42C second temp
COc1ccc(CNC(=O)C(=O)NCC(c2ccco2)S(=O)(=O)c2ccc(Cl)cc2)cc1 (stereo not given),.,100.2,112.5,98.5
Cc1ccc(S(=O)(=O)C(CNS(=O)(=O)c2ccc(F)c(C)c2)c2cccs2)cc1 (stereo not given),.,99.1,168.1,83.7
Cc1ccc(-n2nc(C)c(C(=O)N(Cc3ccccc3)C(C)C)c2-n2cccc2)cc1,-17.1,102.8,64.2,39.4
COc1cccc(C(c2sc3nc(-c4ccco4)nn3c2O)N2CCC(O)CC2)c1 (stereo not given),.,107.9,121.6,101.0
CCN(CC)CCn1c(C)c(C)c2c1ncn1nc(-c3ccc(F)cc3)nc21,-13.3,104.9,.,.
Cn1c(SCC(=O)NCc2ccco2)nnc1-c1c[nH]c2ccccc12,.,102.4,111.0,93.9
O=c1[nH]c(=O)n(-c2ccccc2)c(O)c1C=NCCO,-9.1,112.7,100.0,123.0
CC(C)Cc1ccc(/C=C/C(=O)N2CCCC2)cc1,-61.1,.,74.9,92.0
N/C(=N\OC(=O)CC1CCCCC1)c1ccccc1,-13.1,101.4,93.5,77.2
CNC(=O)c1ccccc1Sc1ccccc1,-6.7,100.9,118.6,88.9
CCCNC(=O)NNc1cccc(C)c1,-18.5,.,95.3,99.4

# Going on with the list.
SMILES,HCMV NEC inh,GIV Gai3 FP,Sa growth 42C,Sa growth 42C second temp
Cc1noc(C)c1S(=O)(=O)N(CC(=O)NCCc1ccccc1)c1ccc(C(C)C)cc1,-6.8,107.5,.,.
CCc1cc(C)cc(OCCn2cc(C=C3C(=O)NC(=O)NC3=O)c3ccccc32)c1,.,172.4,82.3,88.5
COC(=O)c1ccc(COC(=O)c2cc(C)oc2C)cc1,-9.2,.,109.6,92.2
CC(CCc1ccccc1)NC(=O)c1ccc(-n2nc(OCc3ccc(Cl)cc3)ccc2=O)cc1 (stereo not given),-13.6,105.4,.,.
Cc1c(Cl)cccc1NC1c2ccccc2C(=O)N1Cc1ccc2c(c1)OCO2 (stereo not given),-28.6,98.1,.,.
CC(C)(C)NC(=O)/C=C/c1c(Cl)nc2sccn12,-52.0,.,106.2,86.0
O=C1COc2ccccc2N1Cc1noc(-c2ccccc2)n1,-15.8,106.2,.,.
COc1ccc(C2CC(=O)C3=C(C2)Nc2ccccc2NC3c2cc(Br)c(O)c(OC)c2)cc1OC (stereo not given),-27.6,99.5,.,.
CCC(C)NC(=O)c1cc(-c2ccc(F)cc2)no1 (stereo not given),.,99.4,89.3,87.3
Cc1cc(C)cc(-n2c(SCC(=O)N3CCCCC3)nc3c([nH]c4ccccc43)c2=O)c1,.,106.5,112.3,90.2
Cc1cc(N=Cc2cccnc2)no1,0.8,106.2,107.1,93.4
CCOC(=O)c1ccc(N=C2SC(C(=O)Nc3ccc(C)c(Cl)c3)CC(=O)N2C)cc1 (stereo not given),-29.7,100.9,.,.
COc1cccc(C(=O)C2CC2c2ccc(Cl)cc2)c1 (stereo not given),10.1,106.3,.,.
NC(=O)C1CCN(CC(=O)Nc2ccccc2)CC1,-20.8,94.8,79.1,90.4
O=C1N=C(SCC(=O)N2CCCCC2)NC(=O)C1Cc1ccccc1 (stereo not given),-31.4,99.7,.,.
O=C(c1ccc2c(Cl)c3c(nc2c1)CCCC3)N1CCN(c2cccc(Cl)c2)CC1,5.3,105.9,99.0,85.0
COC(=O)C(NC(=O)c1cn(-c2ccccc2)nc1-c1ccc(Cl)cc1)C(C)C (stereo not given),-36.6,.,85.4,85.8
COc1ccc(/C(C#N)=C/c2ccc3c(c2)OCO3)cc1,-3.7,103.8,87.5,80.8
COc1c(C)cc(S(=O)(=O)NCCc2c(C)[nH]c3ccccc23)c(C)c1C,-9.1,109.2,122.5,93.7
COc1ccc(NC(=O)C(c2ccc(OC)cc2)N(C)C(=O)Cc2c[nH]c3ccccc23)cc1 (stereo not given),.,96.3,141.9,89.1
CCCNc1nc(NCC)nc(OC)n1,-8.8,97.2,108.5,81.0
CN(C)CC1(c2ccccc2)CCCC1,-10.9,101.9,104.1,97.0
COc1ccc(CNC(=O)C(NS(=O)(=O)c2ccc3nc(C)sc3c2)C(C)C)cc1 (stereo not given),.,100.9,104.0,89.5
O=C(NC(=O)c1ccccc1)OCC1CCCN2CCCCC12 (stereo not given),4.3,104.2,93.5,83.7
Cc1ccc(NC(=O)Cn2c(=O)n(CCCCC(=O)NCCc3ccc(Cl)cc3)c(=O)c3ccccc32)cc1,-15.6,108.2,99.7,92.8
O=C(NCCc1ccccc1)c1cc(Sc2ccc(F)cc2F)nc2ccccc12,.,100.8,134.1,86.1
CCCCN(CC)C(=O)CCNS(=O)(=O)c1ccc2c(c1)c(=O)n(C)c(=O)n2C,-20.1,107.0,110.2,83.2
COc1cc(OC)c(NC(C)C(=O)N(C)C2CCCCC2)cc1Cl (stereo not given),-32.2,.,97.2,92.9
CCOC(=O)C1Cc2ccccc2CN1 (stereo not given),1.9,101.7,117.9,93.3
CCOc1ccccc1-n1nnnc1SCC(=O)c1ccc(CNC(C)=O)o1,-28.8,.,91.5,95.3
Cc1nc(N2CCC(C(=O)NCCC3=CCCCC3)CC2)c2c(C)c(C)oc2n1,-22.9,100.1,.,.
Cc1oc2ncn(C)c(=O)c2c1C(=O)NCCCN1CCCCC1C (stereo not given),.,100.7,79.8,91.0
Cc1ccc(-n2nc3ccc(NC(=S)NC(=O)c4cc5ccccc5o4)cc3n2)cc1Cl,-31.7,105.3,90.3,81.3
CC(C)c1ccc(C(C)(C)CO)cc1,0.0,.,71.5,93.4
N#Cc1ccccc1CSc1ncccc1C(=O)O,4.2,.,91.3,96.6
COc1cc(OC)c(NC(=O)CN2CCCN(Cc3cc(C)ccc3C)S2(=O)=O)cc1Cl,-13.3,101.2,.,.
CCC(C(=O)OCc1cc(=O)n2nc(CCOC)sc2n1)c1ccccc1 (stereo not given),.,105.3,104.3,92.5
CCn1cc(S(=O)(=O)c2cccc(Cl)c2)c(=O)c2cc(F)c(N3CCN(c4ccccc4)CC3)cc21,.,103.4,103.9,90.5
Cc1ccc2c(c1)c(=O)c1ccccc1n2CC(=O)Nc1ccc(F)c(Cl)c1,-23.4,102.1,.,.
CC(Oc1ccc(F)cc1)C(=O)N1CCC(c2nc3ccccc3s2)CC1 (stereo not given),-11.1,96.7,99.5,85.8
CCN1CCN(Cn2nc(-c3c[nH]c4ccccc34)n(CC3CCCO3)c2=S)CC1 (stereo not given),-38.4,.,90.3,93.0
Cc1cc(F)ccc1NC(=O)CCS(=O)(=O)c1ccc2c(c1)NC(=O)CO2,.,103.1,120.3,95.3
CC(C)(CO)NC(=O)c1sc2ccccc2c1Cl,.,103.3,105.8,87.7
Brc1ccc2[nH]c3c(c2c1)CCCC3NCc1ccccc1 (stereo not given),-5.1,.,96.0,44.9
O=C(O)Cn1c(SC2CCCCC2)nc2ccccc21,-6.7,92.4,93.3,82.7
O=C1c2ccc(S(=O)(=O)O)cc2-c2nc(-c3ccccc3)nc3ccc(Cl)c1c23,11.7,194.5,.,.
CCOC(=O)c1c(C)[nH]c(C)c1S(=O)(=O)N1CCCC(C(=O)NCc2cccc(OC)c2)C1 (stereo not given),.,105.9,94.7,83.9
O=C1OCCC1Sc1nc2scc(C3CC3)c2c(=O)n1C1CCCCC1 (stereo not given),-6.3,.,93.6,94.2
COc1cc2c(=O)n(Cc3ccccc3Cl)c(=O)n(CC(=O)Nc3ccc(C)c(C)c3)c2cc1OC,-25.3,100.5,116.4,95.4
O=C(CS(=O)(=O)c1ccccc1)Nc1ccccn1,2.7,104.3,104.6,109.7
CCCCN1C(=O)c2[nH]nc(-c3ccccc3O)c2C1c1ccccc1 (stereo not given),-19.3,103.7,95.2,86.6
CC1(C)CC2CC(C)(CN2C(=O)c2cc(-c3ccccc3O)on2)C1 (stereo not given),-7.7,101.4,89.9,90.6
COc1ccc(N2C(=O)c3ccccc3NC2c2ccc(OC)c(CSc3ccccn3)c2)cc1 (stereo not given),3.0,104.2,.,.
COCCn1c(COc2ccc(OC)cc2)nc2ccccc21,8.8,104.1,.,.
Cc1ccccc1NC(=O)C(C)Sc1nnc(-c2ccccc2O)o1 (stereo not given),-27.2,102.6,172.9,101.2
O=C(O)CSc1nnc2n(-c3ccccc3)c3ccccc3n12,-21.2,102.4,.,.
c1ccc(CN2CCC(Nc3ncnc4ccsc34)CC2)cc1,-12.5,98.9,86.6,88.2
CCc1ccccc1NC(=O)c1cc(S(=O)(=O)NCCc2ccc(OC)c(OC)c2)ccc1F,.,106.0,115.8,94.8
NS(=O)(=O)c1ccc(Nc2nc(-c3ccccc3)c3cc(Br)ccc3n2)cc1,-7.7,98.4,.,.
CC(C)(C)c1cc(C(=O)CCN2CCCCC2)cc(C(C)(C)C)c1O,.,101.8,92.2,76.9
# (next part)
SMILES,HCMV NEC inh,GIV Gai3 FP,Sa growth 42C,Sa growth 42C second temp
COC(=O)C1=CN(CC(C)C)C=C(C(=O)OC)C1c1cccc(F)c1,-10.3,108.5,100.7,94.2
Cn1c(=O)oc2cc(S(=O)(=O)N3CCC(C(=O)NCc4ccccc4Cl)CC3)ccc21,-6.4,105.6,96.9,105.6
Cc1cc(C)cc(NC(=O)C2CCCN(c3nnc(C)c4c(C)n(-c5ccccc5)nc34)C2)c1 (stereo not given),.,106.9,96.5,89.9
N#CCN1CCCC(C(N)=O)C1 (stereo not given),-28.6,100.6,110.2,70.1
CSc1nn(-c2ccccc2)cc1C(=O)Sc1ccccn1,2.1,99.9,108.0,89.1
CC(C)OC(=O)c1ccc(NC(=O)CSc2nc(-c3cccs3)cc(C(F)(F)F)n2)cc1,11.0,95.7,94.3,89.2
Cn1c(CC#N)nc2ccccc21,-16.6,.,98.3,88.3
CC1CCC(NC(=O)c2ccccc2C(=O)O)CC1 (stereo not given),.,97.0,99.5,88.0
COc1ccc2[nH]cc(C(=O)c3sc(Nc4ccc(OC)c(OC)c4)nc3N)c2c1,-18.9,116.8,.,.
O=C(O)c1cc2c3c(c1)C1C=CCC1C(c1ccccc1)N3CC1CC=CC21 (stereo not given),8.7,81.4*,.,.
